Screening results (PubChem)
GLA inh pH 4.5: qHTS Assay for Inhibitors of Human alpha-Galactosidase at pH 4.5. purified enzyme, 4-MU-alpha-Gal fluorescence, pH 4.5. 230,000 tested, under 10 active. AID 1467, 2008. activity change, negative = inhibition, % at 105 µM; inconclusive = small, poorly fitted or top-dose-only inhibition, or a rising curve; inactive = flat fitted curve, though single readings scatter; no compound was filed as active;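 further: 0% = full activity with enzyme and -100% = basal without enzyme; dose as in the result columns while the protocol names 77 µM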
Target sequence (P06280 whole entry, looked up): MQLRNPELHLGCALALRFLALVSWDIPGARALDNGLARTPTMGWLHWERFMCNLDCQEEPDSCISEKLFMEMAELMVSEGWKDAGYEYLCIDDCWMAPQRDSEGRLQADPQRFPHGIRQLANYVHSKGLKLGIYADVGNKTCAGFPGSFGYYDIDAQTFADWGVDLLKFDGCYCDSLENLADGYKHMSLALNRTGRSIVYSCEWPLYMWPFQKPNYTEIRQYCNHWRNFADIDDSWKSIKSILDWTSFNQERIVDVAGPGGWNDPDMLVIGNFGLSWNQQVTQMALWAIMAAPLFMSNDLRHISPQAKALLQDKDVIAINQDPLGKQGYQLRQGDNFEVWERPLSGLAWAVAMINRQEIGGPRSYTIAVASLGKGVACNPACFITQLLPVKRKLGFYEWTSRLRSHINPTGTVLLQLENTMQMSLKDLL
miR-21 reporter: qHTS Assay for Modulators of miRNAs and/orActivators of miR-21; HeLa miR-21 FLuc reporter, luciferase, 48 h; Potency, µM (titrated, usually from 38.3 µM), for the others: top-dose reporter change, positive = more light; 340,000 tested, under 10 active; active = well fitted rising curve with a large enough effect; inconclusive = small, poorly fitted or top-dose-only effect; inactive = no such curve, though single readings can be large or run the other way;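 further: % of control where 0% means no effect; miR-21 action dims this reporter so a rising signal means less miR-21 action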
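Using DMEM plus 10% FBS, HeLa miR-21-FLuc cells are incubated with test compounds (final up to about 40uM) for 48 hours; firefly luciferase signal is then imaged following reagent-mediated lysis.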
Rango complex inh: qHTS Assay for Inhibitors of Rango (Ran-regulated importin-beta cargo) - Importin beta complex formation; Potency, µM (titrated, usually from 92.2 µM), for the others: at the highest dose inhibition of complex formation; actives 0.031% (n = 340,000); AID 540263, 2011; Importin subunit beta-1 (Homo sapiens), Q14974; Rango CFP/YFP FRET sensor + importin beta, 45 min; active = rising FRET ratio curve, often small or poorly fitted; inconclusive = mostly compound fluorescence or quenching in the first reads; inactive = flat curves in all reads;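 further: potency means the concentration at half of the fitted maximal effect; 0% = DMSO wells and 100% = buffer wells lacking importin beta; nearly all actives have a fitted effect of over 15% in size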
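FRET biosensor (snurportin 1 IBB flanked by EYFP and cerulean), 50 nM, with compound 5 min, then 0.125 microM importin beta in PBS, 1 mM DTT, 0.02% Tween-20, 0.1% BSA. CFP/YFP ratio read after 45 min at room temperature; pre-read flags interference.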
Rango release inh: qHTS Assay for Inhibitors of RanGTP induced Rango (Ran-regulated importin-beta cargo) - Importin beta complex dissociation | Biochemical FRET Rango-importin beta, RanGTP-induced dissociation | actives 0.071% (n = 340,000) | Potency, µM (top dose mostly 46.1 µM), inactives show top-dose activity change, negative = inhibition | Snurportin-1 (Homo sapiens) + GTP-binding nuclear protein Ran (Homo sapiens) + Importin … | AID 540253, 2011; active means falling FRET ratio curve, often poorly fitted, with flat reads before Ran was added; inconclusive means other falling curves, or compound fluorescence or quenching; inactive means flat or rising ratio curve;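 further: potency means the concentration at half of the fitted maximal effect; % of control where 0% means no effect; nearly all actives have a fitted effect of over 45% in size; -100% = wells without RanGTP and RCC1; the record marks most hits as doubtful in a second field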
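Compounds preincubate 5 min with complex of recombinant Rango and importin beta in PBS with 1 mM DTT. Ran (0.6 uM) loaded with 2 mM GTP plus 0.2 uM RCC1 starts dissociation; FRET is recorded 45 min later.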
An asterisk follows results filed as active; ? = inconclusive; . = not tested or not shown; & = joins results of further samples. This is a subset. The share of hits here may be higher or lower than overall.

compound | GLA inh pH 4.5 | miR-21 reporter | Rango complex inh | Rango release inh
COC(=O)c1c(NC(=O)c2ccccc2)sc2c1CC(C)(C)NC2(C)C | 5 | 2% | 2.5% | 2%
CCc1nn(CC(=O)Nc2ccc(Br)c(C)c2)c(=N)s1 | 3 | -7% | -5.9% | -1%
Cc1ccc(C(=O)COC(=O)c2nc(Cl)ccc2Cl)cc1 | . | . | 1.8% | 13%
CCOc1ccccc1/C=N/NC(=O)Cc1csc(Nc2cccc(C(F)(F)F)c2)n1 | -9 | -8% | 7.5% | -3%
CC(=O)c1ccc(-n2c(CCC(=O)O)ccc2-c2ccccc2)cc1 | . | -7% | -1.8% | -15%
CCn1c(O)c(N=NC(=O)C(O)c2ccccc2)c2ccccc21 (stereo unspecified) | 2 | 1% | -0.7% | -9%
CC(=O)c1cn(CC(=O)Nc2ccccc2Cl)c2ccccc12 | . | 14% | 4.2% | -15%
CN(CC(=O)NCCc1ccc(S(N)(=O)=O)cc1)CC(=O)Nc1ccccc1C(F)(F)F | . | . | -0.1% | 17%
CCOC(=O)C1CCN(C(=O)c2ccc(OCC(=O)N3CCOCC3)c(OC)c2)CC1 | . | . | 9.5% | 13%
O=C(NCc1ccccc1Cl)c1ccc[nH]1 | -5 | -2% | -2.1% | -9%
O=C1CCN(CCc2ccccc2)CCN1[C@H](CO)Cc1ccccc1 | . | 1% | -5.4% | 3%
O=C(O)CC(C(=O)Nc1ccc(Cl)c(Cl)c1)C1CCCO1 (stereo unspecified) | 8 | -1% | 3.6% | -8%
O=C1NC2(CCN(Cc3ccccc3)CC2)Oc2ccccc21 | 3 | 1% | 3.0% | 20%
C/C(N)=C(/C#N)C(=O)COC(=O)c1cc(-c2cccc3ccccc23)nc2ccccc12 | -10 | 3% | -0.8% | 8%
CCOC(=O)c1ccc(NC(=O)C(=O)NCc2ccco2)cc1 | 7 | -2%&-12% | 0.1% | 11%
COc1ccc(-c2cc(-c3ccccc3O)[nH]n2)cc1OC | 6 | -41% | -3.5% | 7%
Cc1ccccc1Cn1ccc(NC(=O)c2cnn3cccnc23)n1 | 0 | -25% | 1.9% | -1%
CN(C)CCCNC(=S)/N=c1\sccn1Cc1ccccc1Cl | . | 0% | 4.8% | -5%
Cc1ccccc1NC(=S)NC(=O)CCc1ccccc1 | 12 | -15% | -1.8% | 11%
CC(C)C(O)(C#CCN1CCCCCC1)c1ccccc1 (stereo unspecified) | 4 | -3% | -2.7% | 3%
CCOc1ccc(Cl)cc1S(=O)(=O)N1CCC(C(=O)NCc2ccco2)CC1 | . | -5% | -1.2% | -4%
Cc1cc(N/N=C/c2ccc(O)cc2)nc(NS(=O)(=O)c2ccccc2)n1 | -7 | -4% | -3.6% | -9%
C/C(=N\NC(=O)c1ccncc1)c1ccc(NC(=O)c2ccc(Cl)cc2)cc1 | . | -59% | 1.1% | -1%
Cc1c(Cl)c([N+](=O)[O-])nn1CC(=O)NCc1ccc(Cl)cc1 | . | -5% | 1.2% | -5%
Cn1c(CO)c(-c2ccccc2)c2cc([N+](=O)[O-])ccc21 | -6 | 4% | ? | -10%
COc1ccc(CC(=O)N/N=C/c2ccc(-c3cccc(C(=O)O)c3)o2)cc1OC | 2 | -33% | 0.3% | 0%
CCCCn1c(N)c(N(CCOC)C(=O)c2ccc(N3CCCC3=O)cc2)c(=O)[nH]c1=O | . | . | -4.4% | -18%
O=C(COc1ccccc1/C=C1\SC(=O)NC1=O)Nc1ccc(F)cc1 | -2 | -17% | -2.7% | 2%
COc1cc2c(cc1OC)C(C)N(C(=O)Cc1ccc(C(F)(F)F)cc1)CC2 (stereo unspecified) | . | 1% | -3.5% | 0%
CCC(C)c1c(O)nc(SCC(=O)N2CCCCCC2)[nH]c1=O (stereo unspecified) | . | 2% | -1.3% | 8%
C=C(C)CSc1nnc(-c2ccccc2)n1N | 8 | -26% | -3.1% | -5%
C#CCOc1c(Cl)cc(/C=C2/C(=O)ON=C2C)cc1OCC | . | -5% | -4.8% | 2%
Fc1ccccc1N1CCN(Cc2cccnc2)CC1 | -2 | -3% | 0.2% | 28%
O=C1C(c2ccc(F)cc2)N(Cc2ccc3c(c2)OCO3)C(=O)CN1C1CCCCC1 (stereo unspecified) | -10 | -6% | -2.7% | 1%
CCCC(=O)Nc1nn(CC)c2nc3ccc(C)cc3cc12 | . | -10% | ? | ?
CC1Cc2ccccc2N1C(=O)c1cccnc1 (stereo unspecified) | -11 | -4% | -0.5% | 22%
Cc1ccc(S(=O)(=O)N2CCC(C(=O)NNS(=O)(=O)c3ccc(Cl)cc3)CC2)cc1 | -7 | 1% | 0.3% | -1%
Cc1ccc(S(=O)(=O)NCCC(=O)NCc2ccccn2)cc1 | . | . | -0.6% | 4%
CC(Oc1ccccc1F)c1nnc(SCC(=O)NCc2ccc3c(c2)OCO3)o1 (stereo unspecified) | . | . | 2.2% | 15%
Cc1c(NC(=O)C(C)OC(=O)Cc2ccc(F)cc2)c(=O)n(-c2ccccc2)n1C (stereo unspecified) | . | . | 2.9% | -3%
COc1ccc(C(CNC(=O)c2cccc(S(=O)(=O)N3CCCC(C)C3)c2)N(C)C)cc1 (stereo unspecified) | . | . | -3.5% | 6%
O=C(CCC1N=C2c3ccccc3N=C(SCc3cccc(Cl)c3)N2C1=O)NCc1ccco1 (stereo unspecified) | -2 | 4% | 0.6% | -2%
O=S1(=O)C=CC(Sc2nc3ccccc3[nH]2)C1 (stereo unspecified) | -1 | -1% | 3.9% | 0%
CC(=O)Nc1ccc(NC(=O)C(=O)N/N=C/c2cccnc2)cc1 | 2 | -1% | -3.4% | 1%
Cc1ccc(S(=O)(=O)N2[C@@H](c3ccc(Cl)cc3)C(C(=O)O)=C[C@H]2C(C)(C)C)cc1 | . | . | -4.7% | 22%
CC(C)(C)NCC(O)COc1cccc2c1CCC(=O)N2 (stereo unspecified) | . | . | -1.0% | -1%
Cc1cc(C)c(NC(=O)COC(=O)C2CCCO2)c(C)c1 (stereo unspecified) | . | . | -0.3% | -5%
COc1ccc(S(=O)(=O)N2CCOCC2)cc1NC(=O)c1cccc(Cl)c1 | . | -5% | 3.6% | -16%
O=C1Cc2ccccc2C(c2ccccc2)N1 (stereo unspecified) | . | 7% | ? | -1%
Cc1sc2nc(SCC(=O)Nc3cccc(S(N)(=O)=O)c3)[nH]c(=O)c2c1C | . | . | ? | -3%

Some of these compounds in order of molar mass, highest first.
compound | GLA inh pH 4.5 | miR-21 reporter | Rango complex inh | Rango release inh
Cc1ccc(S(=O)(=O)N2[C@@H](c3ccc(Cl)cc3)C(C(=O)O)=C[C@H]2C(C)(C)C)cc1 | . | . | -4.7% | 22%
Cc1c(NC(=O)C(C)OC(=O)Cc2ccc(F)cc2)c(=O)n(-c2ccccc2)n1C (stereo unspecified) | . | . | 2.9% | -3%
COc1ccc(CC(=O)N/N=C/c2ccc(-c3cccc(C(=O)O)c3)o2)cc1OC | 2 | -33% | 0.3% | 0%
CCCC(=O)Nc1nn(CC)c2nc3ccc(C)cc3cc12 | . | -10% | ? | ?

(cont.)
compound | GLA inh pH 4.5 | miR-21 reporter | Rango complex inh | Rango release inh
CCOC(=O)N1CCN(CC(O)COc2c(C)cc(C)cc2C)CC1 (stereo unspecified) | . | -2% | 6.7% | 3%
CCOc1ccc(C(=O)Nc2ccc3c(c2)OCO3)cc1OCC | -9 | -20% | -2.3% | 12%
Nc1cc(=O)[nH]c(SCc2nnnn2-c2ccc(Cl)cc2)n1 | -3 | 3% | 6.2% | -6%
COc1cc(/C=N/NC(=O)c2ccncc2)cc2c1OCO2 | . | 3% | 0.4% | -1%
Cn1c(O)c(N=NC(=O)CNC(=O)c2cccnc2)c2ccccc21 | . | -1% | -1.4% | -2%
CCOc1ccc(C(=O)NCC(=O)NNC(=O)CN(C)S(=O)(=O)c2ccc(Cl)cc2)cc1OCC | . | . | -2.7% | 8%
CCn1c(NCc2ccccc2NS(=O)(=O)c2ccc(C)cc2)nc2ccccc21 | 0 | 20% | -4.6% | 0%
COc1ccc(N/C=C/C(=O)c2sc(-c3ccccc3)nc2C)cc1 | 1 | 8% | ? | ?
Cc1cc(=O)[nH]c(SC(C(=O)O)c2ccccc2)n1 (stereo unspecified) | 4 | -6% | ? | -6%
C=CCNc1nc(-c2cc3ccccc3o2)cs1 | -10 | -13% | -0.3% | 13%
COc1cccc(-c2cc(C(=O)N3CC4(C)CC3CC(C)(C)C4)no2)c1 (stereo unspecified) | -4 | 18% | 0.8% | 0%
O=C(CSc1nnnn1-c1ccccc1)Nc1ccc(Cl)cn1 | -9 | -2% | -2.0% | -10%
COc1ccc(NC(=O)c2ccccc2-c2ccc(C(F)(F)F)cc2)cc1S(=O)(=O)N1CCOCC1 | -15 | -6% | 2.6% | 12%
O=C1c2ccccc2C(=O)N1OS(=O)(=O)c1ccccc1 | -7 | -5% | . | .
Cc1ccc(C(C(=O)NC2CCCCC2)N(Cc2cccnc2)C(=O)c2csnn2)cc1 (stereo unspecified) | . | 11% | -3.6% | 3%
COc1ccc2cc3cc(C(=O)Nc4ccc5c(c4)OCO5)oc3nc2c1 | 6 | -6% | 4.4% | -2%
CC(C)(C)c1cc(C(=O)N/N=C/c2ccc(O)cc2)n(-c2ccccc2)n1 | 0 | -2% | 2.5% | -15%
CCCn1nnnc1NCc1ccc(N(CC)CC)cc1 | . | 0% | 8.7% | 6%
O=C(CCCCCn1c(=S)[nH]c2ccc(N3CCOCC3)cc2c1=O)NC1CCN(Cc2ccccc2)CC1 | -8 | 1% | ? | ?
Cc1cc(C)nc(NS(=O)(=O)c2ccc(NC(=O)c3ccc4c(c3)OCCO4)cc2)n1 | 0 | -18% | -5.4% | -15%
COc1ccc(SC[C@H](CC(C)C)N2CCN(C)CCC2=O)cc1 | 0 | -55% | -0.4% | -2%
CCS(=O)(=O)Nc1cccc(C2=NN(S(=O)(=O)c3ccc(C)cc3)C(c3ccco3)C2)c1 (stereo unspecified) | 0 | 11% | 0.3% | 0%
CCOC(=O)C1(C)/C(=N/Nc2ccccc2Cl)C(=O)C(=O)N1c1ccccc1 (stereo unspecified) | -11 | 7% | 2.4% | -5%
COc1ccc(C(=O)Oc2cc(N)n(S(=O)(=O)c3ccccc3)n2)cc1 | 6 | -2% | -0.2% | -1%
O=C(Cn1cnc2c(oc3ccccc32)c1=O)N1CCCc2ccccc21 | -1 | -16% | 7.7% | 21%
CCOC(=O)c1sc(SCC(=O)Nc2ccc(N(C)C)cc2)nc1N | -23 | 14% | -1.1% | 0%
COc1ccc(C2=NN(C(=O)CSc3ncccn3)C(c3cccc(OC)c3OC)C2)cc1 (stereo unspecified) | -7 | -2% | 0.5% | 10%
Cn1cccc1CC(=O)N/N=C/c1ccco1 | 5 | -16% | -3.8% | 1%
C=CCn1c(COc2cccc3ccc(C)nc23)nnc1SCC(N)=O | -10 | 0% | -1.0% | 16%
COc1ccc(C(=O)NCCS(=O)(=O)NCCc2ccccc2)cc1 | . | . | -0.1% | -9%
O=C(CCCc1c[nH]c2ccccc12)NCC1COc2ccccc2O1 (stereo unspecified) | -1 | -3% | 3.3% | -11%
CC1C=CCC2C(=O)N(c3ccccc3OC(=O)c3ccco3)C(=O)C12 (stereo unspecified) | -4 | -1% | 0.0% | -7%
Cc1cccc(NC(=O)c2cccc(Cn3cc(Br)c([N+](=O)[O-])n3)c2)c1C | 1 | 9% | -1.0% | 19%
O=C(c1ccco1)C(O)c1ccco1 (stereo unspecified) | . | -7% | 0.3% | ?
C[C@@H]1CC=C[C@H]2[C@H]1C(=O)N(Cc1ccccc1)[C@H]2c1ccc(-c2cc3ccccc3s2)cc1F | -3 | -25% | 4.4% | 12%
CCOC(=O)CSc1nc(NC#N)nc(N(CC)CC)n1 | -13 | -17% | -3.0% | -9%
Cn1c(SCC(=O)N2c3ccccc3CCc3ccccc32)nnc1-c1cc2ccccc2cc1O | -11 | 13% | -3.8% | 4%
